High-throughput results deposited in PubChem by National Center for Advancing Translational Sciences (NCATS).
VACV Venus inh = qHTS for Stage-Specific Inhibitors of Vaccinia Orthopoxvirus: Venus Reporter Primary qHTS; 330,000 tested, 0.46% active; Potency, µM (series often up to 36.5 µM), for the others: at the top dose activity change, negative = inhibition, hits mostly inhibitors; AID 720580, 2013; Vaccinia virus Venus reporter expression, fluorescence; active means well fitted inhibition curve with a large enough effect; inconclusive means small, poorly fitted or top-dose-only effect; inactive means no such curve, though single readings can be large or run the other way; tested in A549 cells; also: nearly all actives have a fitted effect of over 30% in size; inactives centre near -10
Vaccinia mCherry = qHTS for Stage-Specific Inhibitors of Vaccinia Orthopoxvirus: mCherry Reporter Primary qHTS; Potency, µM (titrated, usually from 36.5 µM), inactives show at the top dose activity change, negative = inhibition, usual class: inhibitors; Vaccinia virus mCherry reporter infection, fluorescence; about a quarter of the inactives have no number; 310,000 tested, 0.63% active; active = well fitted inhibition curve with a large enough effect; inconclusive = small, poorly fitted or top-dose-only effect; inactive = no such curve, though single readings can be large or run the other way; tested in A549 cells; also: nearly all actives have a fitted effect of over 35% in size; inactives centre near -10
* hit, by the source's call; i = inactive; ? = inconclusive; nt = not tested or not shown; & = joins results of further samples. % is scaled to controls: 0 for no effect and ±100 for the full control effect; potency is read from the fitted curve at half-maximal effect. No enrichment for hits; about 0.86% have a hit in one of these screens.

SMILES	VACV Venus inh	Vaccinia mCherry
Cn1c(=O)c2c(-c3ccccc3)n3c(c2n(C)c1=O)C(c1ccc([N+](=O)[O-])cc1)Nc1ccccc1-3 (configuration not stated)	-12%	-21%
COC(=O)N(C)C[C@H]1OCc2cnnn2CCCC(=O)N([C@@H](C)CO)C[C@@H]1C	-11%	i
COc1ccc(CN2CCN(Cc3cccc4nonc34)CC2CCO)c(C)c1C (configuration not stated)	-10%	-1%
CCC1(C)NC(=O)N(CC(=O)Nc2sc3c(c2C(=O)OC)CCCCC3)C1=O (configuration not stated)	-7%	-12%
COC(=O)[C@]1(Cc2ccccc2)N[C@H](c2ccc(-c3cccc(Cl)c3)c(OC)c2)[C@@H]2C(=O)N(C)C(=O)[C@@H]21	?	?
Cc1nn(C)c(C(=O)NNC(=S)NC2CCCCC2)c1Br	-10%	-3%
O=C1CC(=O)N(c2cccc(Br)c2)C(=O)N1	5%	i
NC(=O)c1ccccc1NC(=O)CS(=O)(=O)Cc1ccccc1	-13%	-8%
CCCCCCOc1ccc(/C(N)=N/O)cc1	-14%	nt
Cc1ccc(OCCC(=O)Nc2ccc(F)c(F)c2)cc1	-10%	-10%
CCCCN(CCCC)C(=O)c1cc2c(=O)n3cccc(C)c3nc2s1	-3%	-13%
O=C(Nc1nc(-c2cc(Cl)sc2Cl)cs1)c1cccs1	?	nt
CCOc1ccc(NC(=O)Cc2ccc(NC(=O)N3CCCCc4ccccc43)cc2)cc1	?	-3%
CCCCCCC(=O)Nc1cc2nc3c(nc2cc1C)c(=O)n(C)c(=O)n3C	-21%	-18%
CC(=NCc1ccc2c(c1)OCO2)c1c(O)n(Cc2ccccc2)c(=O)[nH]c1=O	-2%	-13%
Cc1c(Br)c([N+](=O)[O-])nn1CC(=O)NCc1ccccc1	-7%	-19%
Cc1oc(/C=N/NC(=O)CN(c2ccccc2Br)S(C)(=O)=O)cc1Br	-20%	-28%
Cc1cc(C)c(NC(=O)Cn2ccn(-c3cccc(Cl)c3)c(=O)c2=O)c(C)c1	-2%	-5%
CC1(C)CC2C1CCC1(O)CC2(C)CCC1N(O)c1ccc(C(=O)NCCO)cn1 (configuration not stated)	?	?
CCOc1cc(/C=C/C(=O)O)ccc1OCCOc1ccccc1	-13%	i
CCN(CC)CCCOC(=O)c1ccc(OC)cc1O	-4%	-14%
OCC1OC(n2cnc3c(Cl)nc(Cl)nc32)C(O)C1O (configuration not stated)	-6%	-19%
CC1=CC(=O)C=C(C)C1=NOC(=O)c1cccc([N+](=O)[O-])c1	0%	-15%
N#Cc1ccc(OCC(=O)NC2=NCCS2)cc1	-4%	-11%
O=C(Cc1ccc(-c2ccccc2)cc1)NC1CCCC1	4%	-6%
Cc1c(Cl)cnc(NC(=O)CSc2nncs2)c1Cl	-11%	i
CCc1ccc(NC(=O)N(C2CCCCC2)C(C)c2cccnc2)cc1 (configuration not stated)	-2%	2%
CCOP(=O)(CN(CC)C(=O)c1ccccc1Br)OCC	-19%	i
COc1cc2c(-c3ccc4c(c3)OCO4)c(-c3ccsc3)oc(=O)c2cc1OC	-19%	-12%
Cc1ccccc1OCc1ccc(C(=O)N2CC(C)OC(C)C2)o1 (configuration not stated)	-13%	-6%
O=C(NCCN1CCN(c2ccccc2)CC1)C1CCN(S(=O)(=O)N2CCOCC2)CC1	-9%	-11%
O=C(c1cnsn1)N1CCN(c2ccccn2)CC1	-16%	i
CCC(C)NCC(O)(c1ccc(Cl)cc1)c1ccc(Cl)cc1 (configuration not stated)	2%	-12%
CC1(C)CC2(CC(c3cccs3)c3cc(Cl)c(O)cc3O2)NC(=S)N1 (configuration not stated)	-17%	-3%
COc1ccc(CCNC(=O)CSc2nnc(CNC(=O)c3cc(OC)c(OC)c(OC)c3)o2)cc1OC	-12%	-7%
N#Cc1cn(N2CCCCC2)c(=O)[nH]c1=O	-8%	-6%

13 neighbouring compounds out of the list so far:
SMILES	VACV Venus inh	Vaccinia mCherry
N#Cc1ccc(OCC(=O)NC2=NCCS2)cc1	-4%	-11%
O=C(Cc1ccc(-c2ccccc2)cc1)NC1CCCC1	4%	-6%
Cc1c(Cl)cnc(NC(=O)CSc2nncs2)c1Cl	-11%	i
CCc1ccc(NC(=O)N(C2CCCCC2)C(C)c2cccnc2)cc1 (configuration not stated)	-2%	2%
CCOP(=O)(CN(CC)C(=O)c1ccccc1Br)OCC	-19%	i
COc1cc2c(-c3ccc4c(c3)OCO4)c(-c3ccsc3)oc(=O)c2cc1OC	-19%	-12%
Cc1ccccc1OCc1ccc(C(=O)N2CC(C)OC(C)C2)o1 (configuration not stated)	-13%	-6%
O=C(NCCN1CCN(c2ccccc2)CC1)C1CCN(S(=O)(=O)N2CCOCC2)CC1	-9%	-11%
O=C(c1cnsn1)N1CCN(c2ccccn2)CC1	-16%	i
CCC(C)NCC(O)(c1ccc(Cl)cc1)c1ccc(Cl)cc1 (configuration not stated)	2%	-12%
CC1(C)CC2(CC(c3cccs3)c3cc(Cl)c(O)cc3O2)NC(=S)N1 (configuration not stated)	-17%	-3%
COc1ccc(CCNC(=O)CSc2nnc(CNC(=O)c3cc(OC)c(OC)c(OC)c3)o2)cc1OC	-12%	-7%
N#Cc1cn(N2CCCCC2)c(=O)[nH]c1=O	-8%	-6%

Going on with the list:
SMILES	VACV Venus inh	Vaccinia mCherry
Cc1ccc(NC2=CC(=O)CC(C)(C)C2)c(N)c1	?	nt
Nc1cc(-c2ccc(Cl)cc2)nn1S(=O)(=O)c1ccc(Cl)cc1	?	-9%
COc1cc(CCc2ccccc2)c(C(=O)O)c(O)c1CC=C(C)C	-25%	-12%
CC(=O)N1CCOc2ccc(S(=O)(=O)NC[C@H]3O[C@@H](n4cnc5c(N)ncnc54)[C@H](O)[C@@H]3O)cc21	4%	i
Cc1cc(C)cc(NC(=O)c2cccnc2)c1	-14%	-5%
O=C(COc1ccccc1)NCCS(=O)(=O)N1CCN(c2ccccc2)CC1	-9%	-12%
N#Cc1ccc(-c2nc3c4ccccc4ccn3c2CC2CCCCC2)cc1	15%	-10%
CCCc1cc(=O)[nH]c(SCC(=O)N2CCOCC2)n1	-7%	-3%
CCOc1ccccc1CNC(=O)c1ccc2nc(N3CCOCC3)sc2c1	-12%	3%
O=[N+]([O-])c1ccccc1/C=N/NC1=NCCN1	-7%	-7%
Cc1c(NC(=O)C(C)OC(=O)[C@@H](NC(=O)c2ccccc2)C(C)C)c(=O)n(-c2ccccc2)n1C (some centres not stated)	-8%	i
C/C(=C\C(=O)c1ccccc1)Nc1cccc(O)c1	-13%	-16%

Already shown: two of the compounds above.
SMILES	VACV Venus inh	Vaccinia mCherry
CC(=O)N1CCOc2ccc(S(=O)(=O)NC[C@H]3O[C@@H](n4cnc5c(N)ncnc54)[C@H](O)[C@@H]3O)cc21	4%	i
Cc1cc(C)cc(NC(=O)c2cccnc2)c1	-14%	-5%

More records.
SMILES	VACV Venus inh	Vaccinia mCherry
CC(C)(C)OC(=O)N1CCC(c2nnc(SCc3ccccc3)o2)CC1	6%	-12%
COc1ccccc1/C=C/C=C1\Oc2c(ccc(O)c2CN(C)C)C1=O	6%	-14%
CC1=C(C(=O)Nc2ccc(Cl)cc2)C(c2ccncc2)C(C#N)=C(SCC(N)=O)N1 (configuration not stated)	0%	-10%
CS(=O)(=O)N1CCN(c2ccc([N+](=O)[O-])cc2C(F)(F)F)CC1	-4%	?
N=c1ccn2c(n1)O[C@H]1[C@@H](CO)[C@H](O)O[C@H]12	?	0.45µM*
CC1(C)Cc2cccc(OCC(=O)N3CCN(c4ccccc4Cl)CC3)c2O1	-13%	-16%
COc1ccc2cc(CNc3ccc(OC)c(OC)c3)c(=O)n(CC(=O)Nc3ccc(C)cc3)c2c1	10%	6%
Cc1ccc(NC(=O)c2cc(NC(=O)CCC(=O)O)ccc2N2CCCCC2)cc1	-16%	i
COc1ccc(-c2nc(Cn3c(SCc4cccc(F)c4)nc4cccnc43)c(C)o2)cc1	-11%	-13%
Cc1cccc(N2CCN(C(=O)Cn3cnc4c3c(=O)n(C)c(=O)n4C)CC2)c1C	-8%	nt
Cc1ccccc1Cn1cc(C)c(=O)[nH]c1=O	-14%	i
CCCNC(=O)N1C[C@H](O)COC[C@H]2O[C@@H](CC(=O)N[C@@H]3CCN(Cc4ccccc4)C3)CC[C@@H]21	-20%	-6%
O=c1nc2ccccc2c(NS(=O)(=O)c2ccccc2)n1-c1ccccc1	11%	0%
O=C(Cc1ccccc1)c1nnc(-c2ccccc2)o1	-6%	-3%
C[C@]12C=CC(=O)C=C1CC[C@@H]1[C@@H]2[C@@H](O)C[C@@]2(C)[C@H]1CC[C@]2(O)C(=O)CO	-6%&1%	-2%
CCOC(=O)c1cc(-c2csc(N/N=C/c3ccccc3Cl)n2)on1	-7%	-17%
COCCN1CN=C(NS(=O)(=O)c2ccc(C)cc2)NC1	0%	-4%
O=C(Cn1c(=O)nc(-c2ccccc2)c2cc(Cl)ccc21)N1CCN(c2ccccc2F)CC1	-8%	i
Nc1cc(Cl)ccc1C(=O)OCC(=O)N1CCCC1	-13%	-5%
COC(=O)[C@H](CCSC)NC(=O)Nc1cc(C)ccc1C	-9%	i
CCN(C(=O)CSc1nncn1-c1ccccc1)c1c(N)n(Cc2ccccc2)c(=O)[nH]c1=O	-8%	i
COc1cccc(-n2c(=O)c3c(C)c(C(=O)N(C)C)sc3n(Cc3ccc(F)cc3Cl)c2=O)c1	-16%	-12%
CCOc1ccc(CNC(=O)CCS(=O)(=O)c2ccc3c(c2)oc(=O)n3C)cc1	2%	-14%
COc1ccc(NC(=O)C2CCN(S(=O)(=O)c3cccc4cccnc34)CC2)cc1	-6%	i
CCc1ccc(-c2cc(C)no2)cc1S(=O)(=O)N1CCN(c2ccccn2)CC1	-2%	-7%
OC(CCc1ccncc1)COc1ccccc1 (configuration not stated)	0%	-1%
O=C(NCc1ccco1)C1CCN(C(=O)c2ccc(Cl)cc2Cl)CC1	0%	i
COc1ccccc1Nc1c2c(nc3ccc(NC(=O)/C=C/c4cccc(OC)c4OC)cc13)CCCC2	?	?
CC(C)(C)c1ccc(OCC(=O)N/N=C/C2CC=CCC2)cc1 (configuration not stated)	-8%	-1%
CCOC(=O)c1cc(C#N)c(SCc2cccc3ccccc23)nc1C	2%	nt
CCCc1noc2c1C(c1cc(Br)ccc1F)C(C#N)=C(N)N2 (configuration not stated)	?	?
O=C(c1cccc(F)c1)N1CCN(c2cccc(C(F)(F)F)c2)CC1	-21%	-25%
CCN(CC)c1ccc(NC(=O)c2ccc(Br)o2)c(C)c1	-12%	-15%
CCOc1ccccc1N(CC(=O)NCC1CCCO1)C(=O)CCC(=O)Nc1ccccn1 (configuration not stated)	10%	18%
C/C(=N\NC(=O)c1nnn(-c2nonc2N)c1CN1CCOCC1)c1ccc(CC(C)C)cc1	-10%	-19%
CC(=O)Nc1cccc(OCCCNC(=O)c2cccc3ccccc23)c1	-7%	-1%
COc1ccc(C2CC(=O)C(C=NCCN3CCN(C(C)=O)CC3)=C(O)C2)cc1 (configuration not stated)	-8%	i
O=C(Nc1cccc(S(=O)(=O)NC2=NCCC2)c1)c1ccc(F)cc1F	-15%	-4%
CC(CCC(=O)O)C1CCC2C3CC[C@H]4CC(O)CC[C@@]4(C)C3CC[C@@]12C (some centres not stated)	?	-1%
CC1=C(C(N)=O)C(c2ccncc2)n2nc(-c3ccccc3Cl)nc2N1 (configuration not stated)	3%	5%
CCCCn1c(N)c(N(CC)C(=O)c2c(C)noc2C)c(=O)[nH]c1=O	-16%	i
O=[N+]([O-])c1ccc2cn(-c3ccccc3)nc2c1	-10%	i
C=CCn1c(SCC(=O)NCc2ccco2)nnc1-c1ccc2ccccc2n1	-18%	-22%
COc1ccc(Cn2nnnc2C(c2ccncc2)N2CCOCC2)cc1 (configuration not stated)	-1%	2%
COc1ccc(Cl)cc1CNCCCSc1ncccn1	-9%	i
Nc1ccc(S(=O)(=O)NC(=O)c2ccccc2)cc1	-4%&-5%	-14%
CC(O)(c1ccccc1)[N+]1(CC(=O)c2ccccc2)C=CC=C1 (configuration not stated)	-15%	-14%
Cc1ccccc1Nc1nc(N)nc(CN2C(=O)NC3(CCCCC3C)C2=O)n1 (configuration not stated)	-6%	-14%
COc1ccc(-c2noc(CSc3nnc(Cc4ccccc4)n3-c3cccc(C)c3)n2)cc1OC	-28%	-13%
CN(CC(=O)Nc1ccc(N2CCOCC2)cc1)C(=O)CC(c1ccccc1)c1ccccc1	-12%	-5%
Cc1cccc(C)c1NC(=O)COC(=O)C1C2CC3OC(=O)C1C3C2 (configuration not stated)	-3%	-1%
C=CC[C@@H](CC(=O)NCCO)C(=O)N[C@@H](C)COC(=O)[C@@H](CC=C)Cc1ccc(F)cc1	-5%	-25%
CCC(CO)Oc1cc(NCc2cccc(Cl)c2)c2ncn(C(C)C)c2c1 (configuration not stated)	?	?
O=C(NNc1nc(Nc2ccccc2)nc(N2CCOCC2)n1)Nc1ccc(Cl)cc1	?	-17%
Cc1cccc(NC(=O)c2ccc3nsnc3c2)c1C	1%	-10%
CC1CCCCC1NC(=O)CN1CCN(S(=O)(=O)c2ccc(Br)s2)CC1 (configuration not stated)	-26%	-27%
C=CCn1c(O)c2ccc(C(=O)N=NC(=O)c3ccc(F)cc3)cc2c1O	2%	-8%
COc1ccc(-c2ccc3c(c2)S(=O)(=O)c2cccc(C(=O)NC4CC4)c2C3=O)cc1OC	-1%	-9%
CC1CCCC(C)N1C(=O)COC(=O)c1ccc([N+](=O)[O-])o1 (configuration not stated)	-13%	-15%
N#CCCn1cc(CNC2CCC(O)CC2)c2ccccc21 (configuration not stated)	2%	6%
CN1CCN(c2ccc(Nc3ccnc4cc(Cl)ccc34)cc2)CC1	?	?
